Screening results from PubChem.
FPR binder: binds the human formylpeptide receptor FPR | FPR-expressing cells, fluorescent ligand binding, flow cytometry | inhibition, %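 (tested at 6.7 µM)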 | 24,000 tested, 0.74% active | AID 440;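 also: 0% = buffer wells and 100% = receptor blocker peptide wells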
Target sequence (P21462 whole entry, looked up): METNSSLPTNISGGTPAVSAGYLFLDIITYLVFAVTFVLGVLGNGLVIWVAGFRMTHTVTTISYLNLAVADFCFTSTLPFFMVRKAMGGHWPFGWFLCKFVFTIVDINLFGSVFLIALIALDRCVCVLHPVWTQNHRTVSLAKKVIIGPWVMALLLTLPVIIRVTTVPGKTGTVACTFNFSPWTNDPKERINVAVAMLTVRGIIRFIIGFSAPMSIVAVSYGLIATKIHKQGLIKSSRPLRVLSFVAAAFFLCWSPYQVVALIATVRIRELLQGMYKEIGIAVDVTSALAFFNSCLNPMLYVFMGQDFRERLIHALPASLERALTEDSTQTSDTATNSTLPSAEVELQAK
VCAM-1 down imaging: suppression of endothelial VCAM-1 upregulation – imaging, high-content imaging, pooled HUVEC, TNFa stimulus (AID 456); inhibition, % at 5 µM, or IC50 in µM where a hit was titrated; HUVEC TNFa-induced VCAM-1 surface expression, immunofluorescence imaging; numbers were filed only for top-ranked candidate wells; 10,000 tested, 0.2% active;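 active = top tenth filtered wells with inhibition above zero that passed visual or statistical confirmation; inactive = the rest, including hits rejected on review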;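 also: 0% = stimulated vehicle wells and 100% = unstimulated cells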
VCAM-1 inhibition: suppression of endothelial VCAM-1 upregulation – cell-based, plate reader, pooled HUVEC, TNFa stimulus (AID 454) | HUVEC TNFa-induced VCAM-1 surface immunofluorescence, plate reader; numbers were filed only for top-ranked candidate wells | inhibition, % at 5 µM | 10,000 tested, 0.2% active;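 active = compound among top-ranked inhibitors of TNF-induced VCAM-1 adhesion protein staining, with the hit upheld by image or statistical review; inactive = the rest, including hits rejected on review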;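 also: 0% = TNFa with vehicle and 100% = cells without TNFa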
VCAM-1 up imaging: boosters of cytokine-driven VCAM-1 levels – imaging, high-content imaging, pooled HUVEC, TNFa stimulus (AID 457) | calls only | 10,000 tested, 0.2% active | Pooled HUVEC, TNFa-induced VCAM-1 immunofluorescence imaging; hits of this screen are not shown here;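 active = a top-ranked rise in VCAM-1 staining upheld on image or statistical review; inactive = the rest, including candidates rejected on review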;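 also: compounds tested at 5 µM in the well; cells exposed to compound for 24 hours before fixing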
FPRL1 binder: ligands of human FPRL1, also counter-screen for FPR ligands; P25090; 24,000 tested, 0.3% active; AID 441; inhibition, %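 (tested at 6.7 µM)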; FPRL1-expressing cells, fluorescent ligand binding inhibition, flow cytometry;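 also: 0% = buffer alone and 100% = receptor blocker peptide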
Target sequence (P25090 whole entry, looked up): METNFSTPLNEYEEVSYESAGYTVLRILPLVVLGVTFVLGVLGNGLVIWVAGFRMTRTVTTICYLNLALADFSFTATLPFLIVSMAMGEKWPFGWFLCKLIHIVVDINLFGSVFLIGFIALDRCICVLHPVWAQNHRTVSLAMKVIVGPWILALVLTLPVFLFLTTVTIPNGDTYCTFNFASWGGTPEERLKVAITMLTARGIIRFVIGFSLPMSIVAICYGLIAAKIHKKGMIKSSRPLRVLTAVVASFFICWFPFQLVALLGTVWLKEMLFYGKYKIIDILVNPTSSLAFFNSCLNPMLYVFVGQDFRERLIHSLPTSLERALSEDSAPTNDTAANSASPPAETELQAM
* marks the source's active call; other numbers are inactive results; i = inactive; / = no result given.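 The calls were made as follows, unless noted: active = mean above 30%; inconclusive = self-fluorescent; inactive = the rest.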 A portion of the library. The share of hits here may be higher or lower than overall.

Compound,FPR binder,VCAM-1 down imaging,VCAM-1 inhibition,VCAM-1 up imaging,FPRL1 binder
COc1cccc(-c2nc(-c3ccc(NC(=O)c4cccnc4)cc3)no2)c1,-4.4,/,/,/,-1.5
C=CCn1c(=O)c2ccccc2n2c(SCC(=O)Nc3cc(C)on3)nnc12,-0.8,i,i,i,-1.1
C=CCNS(=O)(=O)c1nc(C)c(Cl)c(C)c1C#N,-3.6,/,/,/,8.6
O=C(CCCn1c(=S)[nH]c2cc3c(cc2c1=O)OCO3)N1CCN(c2ccc(Cl)cc2)CC1,-0.9,/,/,/,0.5
CCc1nc(C)ccc1OCC(=O)O,-4.3,i,i,i,0.0
COc1ccc(C2CC(=O)Nc3ccccc3S2(=O)=O)cc1OC (centres undefined),-4.1,/,/,/,-4.5
CCOC(=O)CSc1nnc(CNC(=O)c2ccco2)n1C,2.5,/,/,/,-0.3
O=C(C1CCN(c2nnc(N3CCCC3=O)s2)CC1)N1CCN(Cc2ccc3c(c2)OCO3)CC1,-2.8,/,/,/,-8.4
CCCN1CCN(CCCNC(=O)C2CCCN(c3nc4ccc(OCC)cc4s3)C2)CC1 (centres undefined),14.7,i,i,i,-1.1
CCOC(=O)CN1c2ccccc2NC(=O)CC1C (centres undefined),0.3,/,/,/,-3.7
COc1cccc(C2=NOC(C(=O)N3CCc4ccccc4C3)C2)c1 (centres undefined),-1.3,i,i,i,-5.8
Cc1csc(SCCn2c(N3CCOCC3)nc3c2c(=O)[nH]c(=O)n3C)n1,3.9,/,/,/,3.8
COc1cccc(C=Nc2cccnc2)c1O,-1.6,/,/,/,0.2
Cc1nc(CNS(=O)(=O)c2cccnc2)cs1,1.9,/,/,/,4.9
COCCNc1cc(C)nc2c(-c3ccccc3OC)c(C)nn12,-0.2,/,/,/,-2.8
Cc1ccc2c(c1)NC(=O)C(CC(=O)NCCCN1CCCCC1C)O2 (centres undefined),0.4,/,/,/,2.8
Cn1c(=O)n(CC(=O)NC2CCCCC2)c(=O)c2ccccc21,0.9,/,/,/,5.3
CCN(CC)CCNC(=O)c1ccc(NC(C)=O)cc1,1.2,i,i,i,-3.9
COc1ccccc1N1CCN(C(=O)C2CC=CCC2C(=O)O)CC1 (centres undefined),-0.8,i,i,i,2.0
Cc1ccccc1NC(=O)CN(C)S(=O)(=O)c1cccc2cccnc12,0.7,/,/,/,5.6

The closing 4 compounds of the section above come first, to join the parts:
Compound,FPR binder,VCAM-1 down imaging,VCAM-1 inhibition,VCAM-1 up imaging,FPRL1 binder
Cn1c(=O)n(CC(=O)NC2CCCCC2)c(=O)c2ccccc21,0.9,/,/,/,5.3
CCN(CC)CCNC(=O)c1ccc(NC(C)=O)cc1,1.2,i,i,i,-3.9
COc1ccccc1N1CCN(C(=O)C2CC=CCC2C(=O)O)CC1 (centres undefined),-0.8,i,i,i,2.0
Cc1ccccc1NC(=O)CN(C)S(=O)(=O)c1cccc2cccnc12,0.7,/,/,/,5.6
O=C(CS(=O)CC(=O)Nc1cccc2c1CCCC2)Nc1ccc(F)cc1 (centres undefined),10.7,i,i,i,6.2
Cc1noc(C)c1CSc1nc2cc(S(=O)(=O)N3CCOCC3)ccc2o1,1.2,i,i,i,-6.2
CC(C(=O)NCCC1=CCCCC1)N1C(=O)c2ccccc2C1=O (centres undefined),-6.6,/,/,/,5.5
COC(=O)C(NS(=O)(=O)c1ccc(NC(C)=O)cc1)C(C)C (centres undefined),-14.9,/,/,/,-6.1
O=C(NCC12CC3CC(CC(C3)C1)C2)c1nn2c(c1Cl)NC(c1ccco1)CC2C(F)(F)F (centres undefined),-6.9,/,/,/,-1.5
CCCCOC(=O)n1c(SCC(=O)N(CC)CC)nc2ccccc21,-3.7,i,i,i,0.4
O=C(CCc1nc(-c2ccccc2F)no1)NCCc1ccccc1Cl,3.2,/,/,/,-1.9
COc1ccc(C)cc1NC(=O)CN1CCN(S(=O)(=O)c2ccc(Br)cc2)CC1,1.0,/,/,/,0.7
Cc1ccc2oc(=O)c3cnn(CC(=O)NCCC(C)C)c3c2c1,-2.6,i,i,i,0.2
Cc1ccc(-c2nc(CS(=O)CC(=O)N3CCN(c4ncccn4)CC3)c(C)o2)cc1 (centres undefined),2.6,/,/,/,-4.1
CCN(C(=O)Cn1c(=O)oc2ccccc21)c1cccc(C(F)(F)F)c1,2.0,/,/,/,3.7
COc1ccc(C)cc1NC(=O)CN1CCN(S(=O)(=O)c2ccc(C(C)C)cc2)CC1,-2.8,/,/,/,-1.0
CCN(CC)c1ccc(C=N/C(C#N)=C(\N)C#N)cc1,4.3,/,/,/,68.3*
CC(C)(C)n1nc2c(c1NC(=O)c1ccco1)CS(=O)C2 (centres undefined),-19.3,/,/,/,-12.3
CCN1C(=O)OC2(CCCCC2)C1(C)O (centres undefined),-4.5,i,i,i,3.5
O=C(NCc1cccs1)C1CC(c2ccccc2O)=NO1 (centres undefined),1.3,i,i,i,-3.9
CCN1CCN(Cc2nc3c(c(=O)[nH]c(=O)n3C)n2Cc2ccccc2Cl)CC1,-4.7,i,i,i,-2.3
O=C(Nc1c2c(nn1-c1ccc(Cl)cc1)CS(=O)(=O)C2)c1ccc2c(c1)OCO2,5.2,/,/,/,-3.5
Cc1ccc(CNC(=O)c2nnn(-c3cccc(C)c3)c2N)cc1,-10.5,/,/,/,1.4
COc1ccc(OC)c(NC(=O)c2cc(S(=O)(=O)NCc3ccco3)ccc2F)c1,0.3,/,/,/,6.4

(next part)
Keys: A = FPR binder; B = VCAM-1 down imaging; C = VCAM-1 inhibition; D = VCAM-1 up imaging; E = FPRL1 binder
S=c1[nH]nc(-c2ccc(Br)cc2)n1Cc1ccco1
  A = -7.2	B = /	C = /	D = /	E = -3.6

CCCNC(=S)Nc1ccc(Nc2ccccc2)cc1
  A = 17.6	B = /	C = /	D = /	E = 19.4

COc1ccc(OC)c(NC(=O)C(CCS(C)(=O)=O)NC(C)=O)c1 (centres undefined)
  A = -1.5	B = /	C = /	D = /	E = -4.3

CCOC(=O)N1CCN(S(=O)(=O)c2ccc(F)c(C(=O)Nc3cccc(C)c3C)c2)CC1
  A = 0.2	B = /	C = /	D = /	E = -2.8

CCCn1c(C)cc(C(=O)COc2ncnc3sccc23)c1C
  A = -3.8	B = i	C = i	D = i	E = 4.1

O=C(CN1CCN(S(=O)(=O)c2ccc(Cl)cc2)CC1)Nc1ccc(F)cc1F
  A = 5.3	B = /	C = /	D = /	E = -1.6

O=C(c1ccco1)N1CCN(c2cc(=O)n(C3CCCCC3)c(=O)[nH]2)CC1
  A = 4.2	B = /	C = /	D = /	E = 4.9

C=CCOc1cccc(C2C(C(=O)c3ccco3)=C(O)C(=O)N2CCN2CCOCC2)c1 (centres undefined)
  A = 62.6*	B = /	C = /	D = /	E = -2.3

Cc1onc(-c2ccccc2Cl)c1C(=O)NCCn1ccc2ccccc21
  A = 5.6	B = /	C = /	D = /	E = -3.0

COc1ccc(S(=O)(=O)NCC(c2cccnc2)N2CCN(c3ccccc3OC)CC2)cc1C (centres undefined)
  A = -6.7	B = /	C = /	D = /	E = 7.7

COc1cccc(C2CC(=O)NC3=C2C(=O)CCC3)c1 (centres undefined)
  A = 1.8	B = /	C = /	D = /	E = -0.5

C=CCn1c(SCC(=O)NCC2CCCO2)nc2scc(-c3ccco3)c2c1=O (centres undefined)
  A = -11.4	B = i	C = i	D = i	E = -6.5

O=C(CSCCSCC(=O)c1ccco1)c1ccco1
  A = 0.6	B = i	C = i	D = i	E = -6.0

CC(C(N)=O)N1C(=O)C2C3C=CC(C3)C2C1=O (centres undefined)
  A = -7.0	B = i	C = i	D = i	E = -4.1

CCC(C)(C)n1nnnc1C(c1ccncc1)N1CCN(c2cccc(OC)c2)CC1 (centres undefined)
  A = -1.2	B = i	C = i	D = i	E = 0.0

(more compounds)
Keys: A = FPR binder; B = VCAM-1 down imaging; C = VCAM-1 inhibition; D = VCAM-1 up imaging; E = FPRL1 binder
CCOc1ccc(C2N(c3ccc(F)cc3)C(=O)C3CCCN32)cc1OC (centres undefined)
  A = -1.8	B = /	C = /	D = /	E = -2.3

Cc1cc2c(cc(C(=O)N3CCC(C(=O)NC4CCCC4)CC3)n2Cc2c(F)cccc2Cl)o1
  A = 10.3	B = /	C = /	D = /	E = -4.5

COc1ccc(CCNC(=O)CCNS(=O)(=O)c2ccc3c(c2)CCN3C(C)=O)cc1OC
  A = 0.0	B = /	C = /	D = /	E = -4.7

COc1ccc(N2CSC3=C(C#N)C(c4cc(OC)c(OC)cc4OC)CC(=O)N3C2)c(OC)c1 (centres undefined)
  A = -0.2	B = /	C = /	D = /	E = -0.1

CCn1nnnc1SCC(=O)N1CCOCC1
  A = -0.5	B = i	C = i	D = i	E = 11.7

CC1CCN(CCCNC(=O)c2n[nH]c(=O)c3ccccc23)CC1
  A = -1.8	B = /	C = /	D = /	E = 0.5

CC1(C(=O)NCc2cccnc2)CCC(=O)N1Cc1cccs1 (centres undefined)
  A = -7.3	B = /	C = /	D = /	E = -2.0

COC(=O)c1cc2oc(C)cc2n1CC(=O)N1CCCc2ccccc21
  A = 15.5	B = /	C = /	D = /	E = 9.1

Cc1ccc(-c2nn3c(C)nnc3s2)cc1NC(=O)c1ccc(Br)o1
  A = 25.1	B = /	C = /	D = /	E = 2.7

COc1ccc(CNC(=O)C(c2ccco2)N(Cc2cccs2)C(=O)Cc2cccs2)cc1 (centres undefined)
  A = 3.7	B = i	C = i	D = i	E = -12.7

OCc1nc2ccccc2n1CCCOc1ccccc1
  A = 1.7	B = i	C = i	D = i	E = 12.2

CCN1CCN(CCNC(=O)c2ccc(CS(=O)(=O)c3c(Cl)cccc3Cl)o2)CC1
  A = 2.8	B = /	C = /	D = /	E = -2.6

COc1ccc(-c2noc(COc3ccccc3OC)n2)cc1OC
  A = -1.0	B = /	C = /	D = /	E = 4.5

CC(=O)N1CCc2cc(S(=O)(=O)CCC(=O)N3CCN(C(=O)c4ccco4)CC3)ccc21
  A = 1.3	B = i	C = i	D = i	E = 3.2

CCOc1ccc(N(C(C)=O)C2C=CS(=O)(=O)C2)cc1 (centres undefined)
  A = 1.3	B = i	C = i	D = i	E = 0.6

Three entries from above, ordered by SMILES length, high to low:
Keys: A = FPR binder; B = VCAM-1 down imaging; C = VCAM-1 inhibition; D = VCAM-1 up imaging; E = FPRL1 binder
CC(=O)N1CCc2cc(S(=O)(=O)CCC(=O)N3CCN(C(=O)c4ccco4)CC3)ccc21
  A = 1.3	B = i	C = i	D = i	E = 3.2

CCN1CCN(CCNC(=O)c2ccc(CS(=O)(=O)c3c(Cl)cccc3Cl)o2)CC1
  A = 2.8	B = /	C = /	D = /	E = -2.6

Cc1ccc(-c2nn3c(C)nnc3s2)cc1NC(=O)c1ccc(Br)o1
  A = 25.1	B = /	C = /	D = /	E = 2.7

(list continues)
Keys: A = FPR binder; B = VCAM-1 down imaging; C = VCAM-1 inhibition; D = VCAM-1 up imaging; E = FPRL1 binder
COc1ccc(-c2c(C)nn3c(N4CCC(C(=O)N5CCCCC5)CC4)cc(C)nc23)cc1OC
  A = -5.5	B = /	C = /	D = /	E = -4.8

COc1cccc(NC(=O)CCCn2c(=O)[nH]c3ccccc3c2=O)c1
  A = -2.0	B = /	C = /	D = /	E = 2.1

CC1CN(C2CCCCC2)c2nc3c(c(=O)[nH]c(=O)n3C)n2C1 (centres undefined)
  A = 16.1	B = i	C = i	D = i	E = 9.1

O=C(Nc1ccon1)c1csc2c1CCCC2
  A = -0.3	B = i	C = i	D = i	E = 2.4

CN(C)S(=O)(=O)c1ccc2c(c1)c(=O)c(C(=O)NCCCN1CCCCCC1)cn2C
  A = -0.3	B = i	C = i	D = i	E = 1.5

COc1ccc(C(=O)CN2CCN(c3ccc(F)cc3)CC2)cc1OC
  A = -1.5	B = /	C = /	D = /	E = -0.3

CCc1ccc(-n2c(SCC(=O)Nc3cc(C)[nH]n3)nc3[nH]ncc3c2=O)cc1
  A = -4.8	B = /	C = /	D = /	E = -3.7

C=CCN(C(=O)CNC(=O)c1ccco1)C(C(=O)NC1CCCCC1)c1ccccc1F (centres undefined)
  A = -0.4	B = i	C = i	D = i	E = 1.0

CCCCN(C(=O)NC(=O)Nc1ccccc1C)S(C)(=O)=O
  A = -0.8	B = /	C = /	D = /	E = 0.0

Entries of single compounds, quoted from the list. Screens in order: FPR binder | VCAM-1 down imaging | VCAM-1 inhibition | VCAM-1 up imaging | FPRL1 binder
Profile of `CCc1nc(C)ccc1OCC(=O)O` = -4.3 | i | i | i | 0.0
Profile of `Cc1ccc2oc(=O)c3cnn(CC(=O)NCCC(C)C)c3c2c1` = -2.6 | i | i | i | 0.2
